Ba CapD inh: Bacillus anthracis CapD inhibitors, primary screen, biochemical, fluorescence intensity; CapD gamma-glutamyltranspeptidase (Bacillus anthracis Ames Ancestor); purified CapD enzyme, fluorescence intensity read-out; active compounds read low; some hits fall short of the stated cut; z-score (test concentration not listed); 140,000 compounds, 0.23% hits;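 active = z-score under -4 in either of two replicates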;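 also: stock transfer was 100 nL into about 40 µL; score is relative to mean and spread of the plate; one replicate is shown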
AID504770: growth inhibition of E. coli YBA685, primary screen, V. cholerae RctB inhibitors; E. coli YBA685 rctB-dependent plasmid, OD600 growth, 3 h; active compounds read low; z-score (no concentration beside the values); 130,000 compounds, 0.27% hits; AID 504770, 2011;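 active = z-score under -2 on both plates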;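 also: wells of about 30 µL received 100 nL stock; score is relative to mean and SD of the test wells; the first replicate is given; strong numbers were not always called active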
Numbers without * were called inactive; nt = no result given; & = joins results of further samples. Compounds were not picked by outcome; overall some 0.39% were active at least once.

SMILES	Ba CapD inh	AID504770
CC(CN1CCN(Cc2ccccc2)CC1)N(C(=O)c1ccoc1)c1ccccn1 (configuration not stated)	-0.46&1.9	0.15
COC(=O)c1sc(NC(=O)CSc2n[nH]c(-c3cccs3)n2)c(C(=O)OC)c1C	nt	0.2
CC(=O)NC(CCCN=C(N)N)C(=O)O (configuration not stated)	0.055	nt
O=C(c1noc2c1CCCC2)N1CCC(c2c[nH]c3ccccc23)(c2c[nH]c3ccccc23)CC1	0.09	-1.4
Cc1cccc(NC(=O)c2ccc(N3CC4CC(C3)c3cccc(=O)n3C4)c(NC(=O)c3cccc(C(F)(F)F)c3)c2)n1 (configuration not stated)	1.5	nt
O=C(Oc1ccc2c(=O)c(Oc3ccccc3Br)coc2c1)c1cccs1	-0.35	nt
COc1cccc(/C=C2\SC(=S)N(CCCC(=O)Nc3nnc(CC(C)C)s3)C2=O)c1	-0.18	nt
C=CCc1cccc2cc(C(=O)N3CCCCC3)c(=O)oc12	2	0.85
COc1ccccc1C(=O)OC1CCN(C)CC1	0.055	2.5
CCC1(CC)Cc2ccccc2-c2nc(-c3ccccc3)oc(=O)c21	-0.29	-0.65
Clc1ccc(C2=NC(c3ccccc3Cl)N=C(c3ccc(Cl)cc3)S2)cc1	0.025	nt
CCCN1C(=O)C(NC(=O)c2ccco2)(C(F)(F)F)N=C1c1ccccc1 (configuration not stated)	0.005	-0.75
O=C(Nc1ccc(F)cc1F)c1cccnc1Sc1cccs1	-0.27	0.2
O=C(Oc1ccc(Cl)cc1)c1c(-c2ccccc2)nnc2ccccc12	-1.1	0.75
O=C(Nc1cccc(N2C(=O)C=CC2=O)c1)c1cccs1	nt	0.4
CC(=O)Oc1ccc2c(=O)c(-c3ccccc3)c(C(F)(F)F)oc2c1	-0.45	0.1
Cc1c2cnn(-c3ccccc3)c(=O)c2c(C)n1C(C)C(=O)Nc1nccs1 (configuration not stated)	-0.28	0.05
CCOC(=O)c1ccc(N2CC3CCCCN3C2c2cccc(OC)c2O)cc1 (configuration not stated)	0.75	nt
CCOC(=O)c1c(C)c(C#N)c(-n2cccc2)n1-c1ccc(C)cc1	1	0.15
c1ccc2[nH]c(CNc3ncnc4sccc34)nc2c1	nt	-0.3
N#C/C(=C\N1CCc2ccccc21)S(=O)(=O)c1ccc(C(F)(F)F)cn1	0.27	-1.7
Nc1c(C(=O)Nc2ccc(F)cc2)sc2nc3c(c(-c4ccco4)c12)CCC3	-0.53	nt
CS(=O)(=O)N1CCCc2cc(C(=O)NCC(=O)Nc3ccc(F)c(F)c3)ccc21	nt	0.15
CCOc1cc(C2C(C#N)=C(C)NC3=C2C(=O)CC(c2ccccc2)C3)ccc1OC(C)=O (configuration not stated)	18	nt
Cc1cc(C(=O)OCc2nc(N)nc(N)n2)c2ccccc2n1	nt	0.5
NCC1OC(O[C@@H]2C(O)[C@H](OC3C(O)C(N)CC(N)C3OC3OC(CO)C(O)C(O)C3N)O[C@@H]2CO)C(N)C(O)C1O (some centres not stated)	-0.62	nt
COc1ccc(OCCNC(C)=O)cc1	0.38	1
O=C(CSc1nc2ccccc2c(=O)n1CCc1ccccc1)N1CCCC1	-0.02	-0.15
O=C(c1ccco1)N1CCCn2c(SCc3ccccc3)nnc21	1.2	-0.65
CC(C)(C)c1ccc(C2=Nc3ccccc3N=C(c3ccccc3O)C2)cc1	-0.23	nt
Cc1nnc(-c2ccccc2)c(=O)n1/N=C/c1ccc(O)c(O)c1	-2.1	0.25
CCOC(=O)c1sc(SCc2cccc(Cl)c2)c(S(=O)(=O)C(C)C)c1-n1cccc1	-0.62	-0.5
CCOC(=O)Nc1ccc2c(c1)N(C(=O)N(CC)CC)c1ccccc1CC2	0.2	nt
COc1ccc(N2CCN(CCNC(=O)c3oc(=O)c4ccccc4c3-c3ccc(C)cc3)CC2)cc1	-0.27	nt
O=c1cc(NCc2cccs2)[nH]c(=O)n1-c1ccc(Br)cc1	-0.96	-1.7
c1ccc(N(c2ccccc2)c2nc(-c3ccco3)cs2)cc1	nt	0.65
CC(=O)Oc1ccc2c(=O)c(-c3nc4ccccc4n3C)c(C)oc2c1	6.2	-0.15
Cc1ccc(N2C(=O)C3C(C2=O)C2(C4OCCO4)C=CC3(C)O2)cc1 (configuration not stated)	-0.52	nt
C=CCn1c(SCC(=O)c2ccc(CC)cc2)nnc1-c1cccc(OC)c1	-0.17	-0.45
COc1cc(CCNC(=O)OCc2ccsc2)cc(OC)c1	0.27	nt
CCOc1ccc(OCC)c(S(=O)(=O)N2CCC(C)CC2)c1	nt	0
CC(C)c1ccc(NC(=O)/C=C/C(=O)O)cc1	0.17	nt
CCOC(=O)c1ccc2c(c1)C(=O)N(c1ccccc1OC)C2=O	nt	0.05
CC1CCCC(C)N1/N=C/c1ccccc1OC(F)F (configuration not stated)	nt	0.5
COc1ccc(C2C(CC(=O)O)=C(Nc3ccccc3)C(=O)N2c2ccccc2)cc1 (configuration not stated)	-0.03	nt
O=C1C2CC=C(Cl)CC2C(=O)N1CN(CN1C(=O)C2CC=C(Cl)CC2C1=O)C1CCCCC1 (configuration not stated)	-0.22	nt
COC(=O)c1ccc(C(=O)OC)c(NC(=O)c2cc(-c3ccccc3)nc3ccccc23)c1	1.4	nt
CC(=O)N[C@H]1[C@H](Oc2ccccc2)O[C@@H]2COC(c3ccccc3)O[C@H]2[C@@H]1O (some centres not stated)	-0.78	-0.8
Cc1cccc(Cn2c(SCc3ccc(C(=O)NCCN4CCCC4)cc3)nc3ccncc32)c1	64	-0.9
OCCN1CCN(CC/C=C2/c3ccccc3Sc3ccc(Cl)cc32)CC1	-0.28	nt
COc1ccc(C(=O)c2cc3cc(Cl)cc(Cl)c3o2)cc1	0.29	nt
CN1C=C(c2ccccc2)N(c2ccccc2)C1	0.23	1.5
O=C(Cn1cnc2c(nnn2Cc2ccc(Cl)cc2)c1=O)NC1CCCCC1	-0.24	-0.15
O=C(O)/C(=C/c1cccs1)c1cccs1	-1.3	0.5
O=C(Cn1cnnn1)Nc1ccc(Sc2ccc(Br)cc2)cc1	nt	0.25
CC(=O)Oc1c(Cl)cc(C2C3=C(CC(C)(C)CC3=O)OC3=C2C(=O)CC(C)(C)C3)cc1Cl	-0.35	nt
Cc1oc(C(C)(C)C)cc1-c1cc(NS(=O)(=O)c2ccc(Cl)cc2)n[nH]1	0.52	-0.35
CCOc1cc(/C=C2/SC(N)=NC2=O)ccc1OCc1ccccc1	1.1	nt
CC(C)n1nccc1N(CC(=O)N(C)C1CCCCC1)S(=O)(=O)c1ccccc1	nt	-1.8
COC(=O)Nc1nc2c(C)cccc2s1	0.9	0.45

Further records follow.
SMILES	Ba CapD inh	AID504770
CCN(/C=C/C(=O)c1ccccc1O)CC	-3.7	-0.3
CCC1(C)CC(C(=O)c2cccc(C)c2)CCO1 (configuration not stated)	nt	1.1
CCOc1cc(-c2nc3sc4c(c3c(=O)[nH]2)CCCC4)cc(Br)c1OCc1ccccc1F	2.8	nt
Cc1nn(-c2ccccc2)c2sc(C(=O)N3CCOCC3)cc12	nt	-0.35
CCc1nnc(NC(=O)c2sc3nc4c(cc3c2N)CCCCC4)s1	9.1	nt
CC(C)(C)Sc1ccccc1CN1CCCC(COC(=O)N2CCN(c3sc(S(N)(=O)=O)cc3[N+](=O)[O-])CC2)C1 (configuration not stated)	-0.14	nt
Cc1nn(-c2ccccc2)c(C)c1CN(C)C(=O)CNC(=O)c1cccs1	nt	0.2
NC(=O)C1CCCCN1Cc1cc2c(cc1O)CCC2 (configuration not stated)	nt	0
Cc1cc(-n2c(SCc3cc(=O)n4c(C)cccc4n3)nc3n[nH]c(C)c3c2=N)ccc1Cl	0.09	nt
CCOC(=O)n1c(=O)sc2ccccc21	0.33	-0.45
O=S(=O)(Nc1ccc2nccnc2c1)c1ccc(Cl)c(Cl)c1	-1.2	nt
OC(CN1CCOCC1)C12CC3CC(CC(C3)C1)C2 (configuration not stated)	-0.71	0.3
COc1ccccc1NC(=O)C1=C(C)NC(SCC(=O)Nc2cc(C)ccc2C)=C(C#N)C1c1ccccc1 (configuration not stated)	0.3	nt
Cc1noc(C)c1CC(=O)Nc1ccc2c(c1)OCCCO2	nt	-0.45
Cc1ccc(C)n1-c1ccc(C(=O)N2CCNC(=O)C2)cc1	nt	-0.25

13 entries out of the list, arranged by count of non-hydrogen atoms, high to low.
SMILES	Ba CapD inh	AID504770
CC(C)(C)Sc1ccccc1CN1CCCC(COC(=O)N2CCN(c3sc(S(N)(=O)=O)cc3[N+](=O)[O-])CC2)C1 (configuration not stated)	-0.14	nt
COc1ccccc1NC(=O)C1=C(C)NC(SCC(=O)Nc2cc(C)ccc2C)=C(C#N)C1c1ccccc1 (configuration not stated)	0.3	nt
Cc1cc(-n2c(SCc3cc(=O)n4c(C)cccc4n3)nc3n[nH]c(C)c3c2=N)ccc1Cl	0.09	nt
CC(C)n1nccc1N(CC(=O)N(C)C1CCCCC1)S(=O)(=O)c1ccccc1	nt	-1.8
Cc1nn(-c2ccccc2)c(C)c1CN(C)C(=O)CNC(=O)c1cccs1	nt	0.2
CCc1nnc(NC(=O)c2sc3nc4c(cc3c2N)CCCCC4)s1	9.1	nt
Cc1nn(-c2ccccc2)c2sc(C(=O)N3CCOCC3)cc12	nt	-0.35
Cc1ccc(C)n1-c1ccc(C(=O)N2CCNC(=O)C2)cc1	nt	-0.25
NC(=O)C1CCCCN1Cc1cc2c(cc1O)CCC2 (configuration not stated)	nt	0
OC(CN1CCOCC1)C12CC3CC(CC(C3)C1)C2 (configuration not stated)	-0.71	0.3
CCC1(C)CC(C(=O)c2cccc(C)c2)CCO1 (configuration not stated)	nt	1.1
CCN(/C=C/C(=O)c1ccccc1O)CC	-3.7	-0.3
CCOC(=O)n1c(=O)sc2ccccc21	0.33	-0.45

The list goes on.
SMILES	Ba CapD inh	AID504770
CCC(Sc1nc2cc(OC)c(OC)cc2c(=O)n1Cc1ccco1)C(=O)NCc1ccc(C)cc1 (configuration not stated)	-0.33	-0.25
N#Cc1c(F)cccc1NC(=O)CSCC(=O)O	-1.5	-0.3
CCN1CCN(C(=O)Nc2ccc(Cl)c(Cl)c2)CC1	0.045	2
COc1ccc(-n2nc(C)c3sc(C)nc3c2=O)cc1	0.74	0.2
O=C(COc1ccccc1Cl)N(c1ccccc1Cl)C1CN2CCC1CC2 (configuration not stated)	-0.27	0.3
Cc1cc(N2CCNCC2)nc2ccccc12	nt	-0.2
CCC(Sc1nc(NCCOC)c2ccccc2n1)C(=O)NCc1cccnc1 (configuration not stated)	0.42	nt
O=C(c1cccs1)N1CCC2(CC1)OCCO2	-0.12	-0.45
CCCCCCCc1c(COC)[nH][nH]c1=O	0.2	nt
CN(C)C(=O)CSc1nnc(-c2ccccc2O)n1Cc1ccccc1	0.14	-0.5
CCCC(=O)Nc1cccc(NC(=O)c2cccnc2)c1	-0.27	2.5
CN(c1ccnc(C(=O)NCCN2CCOCC2)c1)S(=O)(=O)c1ccccc1	0.1	0.45
Cc1ccc(Cl)cc1NC(=S)NN	0.23	nt
Cc1ccsc1CNS(=O)(=O)c1ccc(F)cc1	0.35	-0.6
Cc1c(C(=O)Nc2ccc(S(=O)(=O)N3CCCCCC3)cc2)oc2ccc(F)cc12	0.97	-0.4
COc1ccc(CCNC(=O)CSc2nc3ccccc3nc2N2CCCC2)cc1OC	-0.8	-0.05
O=C(COCC(=O)Nc1nc(-c2ccncc2)cs1)Nc1nc(-c2ccncc2)cs1	nt	-0.25
COc1ccccc1NC(=O)c1sc2nc(C)nc(N3CCCCC3)c2c1C	-0.8	nt
Cc1ccc2nc(NC(=O)C(Cc3ccccc3)NC(=O)OCc3ccccc3)sc2c1 (configuration not stated)	0.29	-0.05
Cc1ccc(Oc2ncccc2C(F)(F)F)c2c1CCC2	0.24	nt
NNC(=O)CSc1nc2ccccc2o1	0.3	0.2
COc1ccc([C@@H]2[C@@H](C(=O)c3ccc(C)cc3)N3c4ccc(Cl)cc4C=C[C@@H]3C2(C#N)C#N)cc1OC	-0.15	nt
Brc1ccc2nc[nH]c2c1	-0.12	-0.85
O=C(O)CCC(=O)N1N=C(c2ccc(Br)cc2)CC1c1ccccc1F (configuration not stated)	1.9	nt
CCOC(=O)c1ccc(N2C(=O)C3C(c4ccc(Cl)cc4Cl)OC4(C(=O)c5ccccc5C4=O)C3C2=O)cc1 (configuration not stated)	-0.31	nt
CCNC(=O)/C=C/c1ccc(C(C)(C)C)cc1	0.14	-0.5
CC(C)CCNc1nc2c(c(=O)[nH]c(=O)n2C)n1C(C)C	0.005	-0.75
N#CC(Cc1ccccc1)Sc1nnc(-c2ccco2)n1-c1ccccc1 (configuration not stated)	nt	-0.55
COC(=O)c1ccc2c(c1)sc(=NC(=O)c1ccc(S(=O)(=O)N3CCCC3)cc1)n2C	nt	0.05
COCC(C)n1c(C)cc(C(=O)CSC2=N/C(=C\c3ccco3)C(=O)N2c2ccc(OC)c(Cl)c2)c1C (configuration not stated)	nt	2
Cc1ccc(S(=O)(=O)Nc2cccc3nnc(C)cc23)cc1	1.2	-1.6
CCN(Cc1nc2cc(Cl)ccc2c(=O)[nH]1)C(=O)c1cccc(NC(C)=O)c1	nt	-0.15
Cc1scc(CN2CCC3(CC2)OCCO3)c1C	0.35	0.1
CCC(=O)N1CCc2cc(S(=O)(=O)Nc3ccc(OC(F)(F)F)cc3)ccc21	0.1	-0.65
COc1ccc2c(c1)CCC/C(=N/O)C2=O	-1.3	0.05
C[C@@H](C(=O)OCC(N)=O)N1C(=O)C2CC=CCC2C1=O (some centres not stated)	nt	-0.45
CCc1cccc(N2C(=O)C(Cc3ccccc3)N=C2N(Cc2ccco2)C2CCCC2)c1 (configuration not stated)	10	0.15
CC(=O)NC1(C2CCCCC2=O)CCCCC1 (configuration not stated)	-0.43	-0.05
Cc1ccc(OCC(=O)NCc2ccccc2)cc1	-0.56	0.1
N#CCSc1ccccc1NC(=O)COC(=O)c1ccc(CN2CCCC2=O)cc1	nt	-0.05
